# Assay outcomes as filed in PubChem BioAssay.
# Mtb hypoxia inh: inhibitors of hypoxia-regulated fluorescent reporter in Mycobacterium tuberculosis; hit rate 0.1% among 300,000; M. tuberculosis hypoxia-regulated fluorescent reporter, fluorescence; fluorescence inhibition, % (concentration not given with the values);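 active = 35 to 45% if threefold the growth effect, above 45% if 1.5-fold the growth effect; inactive = the rest, general growth blockers included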;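 note: wells of about 50 µL received 100 nL stock; 0% = vehicle wells and 100% = reference inhibitor wells; whole bacteria with a GFP reporter of the hypoxia response; strong numbers were not always called active; many hits fall short of the cut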
# BJeLR viability: kills HRASV12-expressing BJeLR cells. BJeLR (HRASV12) viability, CellTiter-Glo ATP luminescence, 48 h; reference of the scale not given here. inhibition, % (test concentration not listed). hit rate 0.17% among 300,000;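 active = replicate mean above 50%; inconclusive = above 50% but judged a plate artefact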;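 note: 50 nL library stock added to about 25 µL; numbers are from one replicate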
# Sa RN4220 lethal: kills Staphylococcus aureus RN4220. AID 1259311. inhibition, % (concentration not given with the values). S. aureus RN4220 growth, OD600, 16 h. hit rate 0.33% among 330,000;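 active = z-score of -3 or lower and OD600 up to 0.18 on both plates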;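 note: plate controls were untreated cells for no effect and reference antibiotic for full effect; stock transfer was 100 nL into about 80 µL; one replicate is shown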
# PrP 5UTR inh: inhibition of PrP 5' UTR reporter expression; cell-based PrP 5' UTR mRNA reporter, plate reader; inhibition, % (test concentration not listed); hit rate 0.35% among 340,000; AID 488862;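 active = every replicate at 50% or more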;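 note: 0 = median of the neutral control wells; tested in H4 reporter cells; numbers are from one replicate; inactives centre near -14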
# ugtP null kill: compounds lethal to S. aureus RN4220 ugtP deletion mutant | OD600 growth, 16 h; some inactives read as strong as hits | growth inhibition, % (concentration not given with the values) | hit rate 0.54% among 330,000 | AID 1259309;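 active = z-score under -3 and OD600 up to 0.15 on both plates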;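 note: plate controls were untreated wells for no effect and antibiotic for full effect; wells of about 80 µL received 100 nL stock; the first replicate is given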
# Autofluor counter: compound fluorescence in toxin protease inhibitor counterscreen; fluorescence intensity (concentration not given with the values); compound autofluorescence counterscreen, microsphere flow cytometry; active compounds read high; hit rate 3.1% among 360,000; AID 624483;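 active = at least 3 SD above the mean of all compounds, about 16000 in these data; inconclusive = too few beads counted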;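 note: 100 nL of 1 mM stock went into each well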
# Mtb hypoxia inh growth: recorded beside Mtb hypoxia inh, whose call it bears; growth inhibition, %; measured here: M. tuberculosis growth (absorbance);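 0% = vehicle and 100% = reference antibiotic; read after six days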
# An asterisk follows results filed as active; ? = inconclusive; . = no result given; & = joins results of further samples.
# Preview:
SMILES,Mtb hypoxia inh,Mtb hypoxia inh growth,BJeLR viability,Sa RN4220 lethal,PrP 5UTR inh,ugtP null kill,Autofluor counter
Cc1ccc(CNc2ccc(N3CCOCC3)cc2)cc1,.,.,-5,.,-29,.,3460
COc1ccc(OCCN2C(=O)NC(C)(c3ccc(C)cc3)C2=O)cc1 (configuration not stated),6,4,-16,2.2,-16,4,8095
Cc1ccc(O)c(C2=NCCNC(C(F)(F)F)=C2)c1,6,2,-12,4.6,-3,-4,21465*
C#CCOc1nc(Nc2cccc([N+](=O)[O-])c2)nc(OCC#C)n1,-3,2,1,-7.3,-20,-13,2048

# Main list (from the top)
SMILES,Mtb hypoxia inh,Mtb hypoxia inh growth,BJeLR viability,Sa RN4220 lethal,PrP 5UTR inh,ugtP null kill,Autofluor counter
Cc1ccc(CNc2ccc(N3CCOCC3)cc2)cc1,.,.,-5,.,-29,.,3460
COc1ccc(OCCN2C(=O)NC(C)(c3ccc(C)cc3)C2=O)cc1 (configuration not stated),6,4,-16,2.2,-16,4,8095
Cc1ccc(O)c(C2=NCCNC(C(F)(F)F)=C2)c1,6,2,-12,4.6,-3,-4,21465*
C#CCOc1nc(Nc2cccc([N+](=O)[O-])c2)nc(OCC#C)n1,-3,2,1,-7.3,-20,-13,2048
CCN1CCCC1CNC(=O)c1c(OC)ccc(Br)c1OC (configuration not stated),6,2,.,3.8,.,-2,.
O=c1c(C(c2ccc(F)cc2)c2c(O)nc3n(c2=O)CCCS3)c(O)nc2n1CCCS2,2,-1,-7,3.7,-16,4,3445
COCCNC(=O)c1sc2ncn(CC(=O)N3CCCCC3)c(=O)c2c1C,.,.,4,2.7,-19,3,4166
CC1(C)CC(=O)C2=C(C1)C(c1cn(-c3ccccc3)nc1-c1ccccc1)C(C#N)=C(N)O2 (configuration not stated),1,5,8,1.8,-24,4,2668
CCCc1cc(=O)oc2cc(OCC(=O)NC3CCN(Cc4ccccc4)CC3)ccc12,7,5,-4,-3.0,2,1,5634
CC(=O)N1CCN(CC(O)COc2ccc(Br)cc2)CC1 (configuration not stated),14,1,0,1.2,-9,5,3887
CO/N=C/C(=N\Nc1ccc(OC)cc1)C(=O)c1ccc(OC)cc1,.,.,12,.,-18,.,3401
Cc1noc(C(=O)Nc2ccccc2C(F)(F)F)c1Cl,10,5,2,7.7,-15,-5,10263
O=C(NCc1cccs1)c1nc(-c2cccs2)no1,6,10,-2,0.6,-55,0,2598
CCCC(=O)NC(c1ccco1)c1cc([N+](=O)[O-])c2cccnc2c1O (configuration not stated),17,2,4,72,-3,68,2865
Cc1ccccc1NC(=S)NCCc1c[nH]c2ccccc12,-8,14,-4,0.5,-16,-2,2711
CCOc1cc(CN2CCCCCC2)ccc1OC,5,2,0,-3.1,-5,3,2984
CC(=NNC(=O)CCC(=O)Nc1ccc(Br)cc1)c1ccc(Br)cc1,8,8,.,-1.9,.,2,.
O=C1CCCC(O)=C1N=Nc1ccc2ncsc2c1,1,-4,7,-3.3,-47,-5,2582
CCN(CC(=O)Nc1ccccc1OC)C(=O)c1ccc(NC(=O)c2cccs2)cc1,9,11,.,-2.4,-35,-2,7791
C[C@H](CO)N1C[C@H](C)[C@@H](CN(C)C(=O)Nc2ccccc2)Oc2ccc(NC(=O)Cn3cnnn3)cc2C1=O,5,5,.,6.6,-4,0,3827
COc1ccc(CCNC(=O)CCCOc2ccc(C)cc2)cc1OC,.,.,-1,5.6,-22,4,2052
O=C(O)Cc1ccc(O)cc1,15,10,-6,0.4,-9,-3,4781
c1cnc(N2CCN(Cc3ccc4c(c3)OCO4)CC2)cn1,11,-3,0,-1.3,-34,3,3626
CN(C(=O)c1ccc2c(c1)S(=O)(=O)N=C1CCCCCN12)c1ccccc1,4,-4,-14,3.7,-19,14,4705
CC(C(O)c1ccc(O)cc1)N1CCC(Cc2ccccc2)CC1 (configuration not stated),2&-3&1,4&-3&0,1&-14,0.7&0.9&0.8,-12&-31&1,17&-1&2,4407&4344&6355
COc1ccc(S(=O)(=O)N2CCCN(Cc3cccc(F)c3)CC2)cc1,.,.,-17,-1.0,-13,15,3565
CC(NC(=O)OC1CCCCC1)N1C(=O)C2C3C=CC(C3)C2C1=O (configuration not stated),9,7,-2,7.9,-7,1,2349
Cc1cc(C)n(C2CCCCC2OC(=O)CCc2ccccc2)n1 (configuration not stated),-16,0,-4,-1.2,-6,-5,3606
CCOC(=O)C1CCCN(C(=O)COC(=O)C2=COCCO2)C1 (configuration not stated),17,3,-3,7.8,-3,0,2825
CN(C)S(=O)(=O)c1ccc(C(=O)Nc2ccnn2C2CCCCC2)cc1,0,9,4,2.9,-2,-6,3753
O=C(Cc1ccc(Cl)cc1)Nc1nc2ccccc2[nH]1,-6,0,18,0.4,-18,-3,3116
O=S(=O)(c1ccc(F)cc1)n1ccc(-c2cnc(-c3ccccc3)s2)n1,11,2,0,-8.7,-65,14,9311
CCC1CCCCN1CCCNC(=O)c1cc2c(=O)oc3ccc(C)cc3c2s1 (configuration not stated),1,-1,11,-3.6,-18,6,7613
COc1cc(/C=C/C(=O)c2ccc3c(c2)OCCO3)cc(OC)c1OC,-7,5,-1,13,-31,19,3672
CC[n+]1c(C=C2C=C(C)CC(C)C2)sc2ccccc21 (configuration not stated),5,15,.,6.3,.,-5,.
Cc1c(C(=O)N2CCC(C(N)=O)CC2)sc(N)c1C#N,14,21,.,5.8,5,9,5272
Cc1ccc(-c2cc(C(=O)NN=Cc3ccoc3)c3ccccc3n2)cc1,-2,8,.,2.4,.,1,.
O=C(O)Cc1csc(NC(=O)CSc2nnnn2-c2ccc(O)cc2)n1,-13,-4,5,0.6,-8,-6,5888
CC1N(O)C(C)(C)C(c2ccccc2)=[N+]1[O-] (configuration not stated),4,2,2,8.7,0,13,3250
O=[N+]([O-])c1cccc(CN(CCO)Cc2ccccc2)c1,5,-1,-19,11,5,13,16829*
Cc1c(C)c2ccc(OS(C)(=O)=O)cc2oc1=O,6,5,-2,3.2,-28,-6,2138
CN(CC(=O)Nc1cccc(F)c1)CC(=O)Nc1cccc(S(=O)(=O)N(C)c2ccccc2)c1,-11,3,.,5.8,3,-13,?
CC(NC(=O)Cc1ccccc1)c1cc2c(cc1Br)OCCCO2 (configuration not stated),.,.,-4,3.9,-49,-1,2802
NC(=O)c1c(NC(=O)CN2CCN(S(=O)(=O)c3ccccc3)CC2)sc2c1CCC2,3,-1,-6,4.5,0,-1,?
CC(=O)N(c1nc(CCl)cs1)c1ccc(C)cc1C,7,8,8,5.0,-64,6,5511

# Exported with tabs: four of the compounds above.
SMILES	Mtb hypoxia inh	Mtb hypoxia inh growth	BJeLR viability	Sa RN4220 lethal	PrP 5UTR inh	ugtP null kill	Autofluor counter
O=C(Cc1ccc(Cl)cc1)Nc1nc2ccccc2[nH]1	-6	0	18	0.4	-18	-3	3116
CC[n+]1c(C=C2C=C(C)CC(C)C2)sc2ccccc21 (configuration not stated)	5	15	.	6.3	.	-5	.
O=C(O)Cc1csc(NC(=O)CSc2nnnn2-c2ccc(O)cc2)n1	-13	-4	5	0.6	-8	-6	5888
CCC1CCCCN1CCCNC(=O)c1cc2c(=O)oc3ccc(C)cc3c2s1 (configuration not stated)	1	-1	11	-3.6	-18	6	7613

# Continued:
SMILES,Mtb hypoxia inh,Mtb hypoxia inh growth,BJeLR viability,Sa RN4220 lethal,PrP 5UTR inh,ugtP null kill,Autofluor counter
CC(=O)NCC(C)=NNc1ccc([N+](=O)[O-])cc1,-22,-12,.,-1.0,.,-19,.
CN(C)CCCn1cnc2c1c(=O)[nH]c(=O)n2Cc1ccccc1,9,0,1,3.9,-1,3,3822
O=C1CCCN1CN(C(=O)c1ccc2c(c1)OCO2)c1cccc(Cl)c1,13,3,-3,2.0,-16,1,9226
Cc1ccc(C(=O)CSc2nnnn2C(C)C)c(C)c1,-69,-4,1,5.8,44,2,3754
CCCCN1C2=NCCCN2c2ccccc21,10,16,2,6.8,-23,6,10731
Cc1ccccc1NC(=O)CSC1=NCCN1,10,2,.,3.3,-17,9,2782
Cc1ccc(N2CC(C(=O)N3CCC(C(=O)Nc4nnc(C(C)C)s4)CC3)CC2=O)cc1 (configuration not stated),2,11,8,-4.8,-16,7,3838
CCc1noc(C)c1C(=O)OCC(=O)NCCc1ccc(OC)cc1,-1,-1,.,-0.3,-17,3,4654
Cc1nc2ccc(NC(=O)COc3ccccc3F)cc2s1,12,6,2,8.1,-23,-5,3761
O=C(CSc1ncccc1C(=O)O)c1ccccc1F,-10,5,-5,3.0,-1,1,3443
CC1CC(=NNc2nc3ccccc3[nH]2)CC(C)(C)C1 (configuration not stated),-20,-10,.,5.6,.,-7,.
COc1cc2cc(CCCOC(=O)c3ccc(C#N)cc3)oc(=O)c2cc1OC,2,5,.,4.4,-20,1,3469
O=C(CSc1nnc(N2CCOCC2)n1-c1cccc(F)c1)N1CCN(c2ccccn2)CC1,3,7,.,0.3,-2,1,6083
CC1CN(CCOc2ccc(Cl)cc2Cl)CC(C)O1 (configuration not stated),8,0,-6,2.4,-26,8,2052
Cc1ccsc1CN(C)Cc1nc(C2CC2)no1,7,12,13,1.3,-14,5,2176
CC(C)Nc1ccc(C(CC(N)=O)NC(=O)c2ccccc2)cc1[N+](=O)[O-] (configuration not stated),14,2,-4,-0.9,-21,-2,3545
O=C(NCCc1ccccc1)c1nnc(CS(=O)(=O)c2ccccc2)o1,10,10,6,-7.4,-18,2,4967
Cc1cc(C)c2oc(-c3ccc(C)c(NC(=S)NC(=O)c4cccs4)c3)nc2c1,6,13,-9,23,-13,10,2914
Cc1cc(C(=O)N/N=C/c2ccco2)n[nH]1,.,.,5,.,-22,.,1988
CC[C@H](C)[C@@H](C(=O)N1CCCC1c1nccs1)N(C)C(=O)[C@H](CC(C)C)N(C)C(=O)[C@H](Cc1ccc(OC)cc1)N(C)C(=O)/C=C(\C)OC (some centres not stated),1,4,.,2.8,-20,8,3816
CC1(NC(=O)/C=C/c2nc3ccccc3s2)CCS(=O)(=O)C1 (configuration not stated),6,2,.,4.1,-9,-2,6180
CCOc1ccc(N(C)S(=O)(=O)c2cnc[nH]2)cc1,3,-4,12,2.1,-7,2,4365
COc1ccc(C(C(=O)NC(C)(C)C)N(C(=O)CCC(=O)Nc2cc(C)on2)c2cccc(C)c2C)cc1 (configuration not stated),1,-9,3,0.8,-12,8,3574
C=CCNC(=S)Nc1ccc(N(C)C)cc1,-3,-3,-7,4.5,-49,11,5863
COc1ccc(-c2nnc(N(C)C(=O)c3cccnc3)s2)cc1,.,.,-5,-5.7,-40,-1,4612
CC(C)Cn1c(SCC(=O)N2CCN(C(=O)c3ccco3)CC2)nc2ccccc2c1=O,8,-1,-13,-1.7,-23,3,4364
COC(=O)C(C)Sc1nc2c(c(=O)n(C)c(=O)n2C)n1CCC(C)C (configuration not stated),9,2,11,3.2,-8,15,7486
C=C1c2ccccc2NC(=O)N1c1ccc(OC)cc1,-14,-1,19,1.5,-16,-2,2481
Cn1c2ccccc2c2ncn(CCC3=CCCCC3)c(=O)c21,11,10,4,-1.3,-55,-13,10076
CC(C)(C)c1ccc(C=NNC(=O)C(=O)NCCCN2CCOCC2)cc1,9,12,.,2.7,.,2,.
CCOc1ccc(NC(=O)CSc2nnc(C3CC3)n2N)cc1,4,3,3,0.6,-4,2,23438*
COc1ccc(C2CC(=O)c3c(ccc4ccccc34)N2)cc1OC (configuration not stated),.,.,6,3.9,-3,3,4536
O=C(Nc1ccc(Br)cc1)c1cc([N+](=O)[O-])cc([N+](=O)[O-])c1,11,8,8,17,-17,3,3650
Cc1cc(C=NNc2ncnc(N)c2[N+](=O)[O-])c(C)n1-c1ccccc1,0,8,.,-0.5,.,2,.
CC(C)CC(OC(=O)c1cccs1)C(=O)NCc1ccco1 (configuration not stated),-1,2,0,5.9,-16,0,8781
CC(C)CN(CCCNC(=O)CN1N=C(c2ccc(Cl)cc2)CCC1=O)CC(C)C,-8,8,2,-1.2,-10,-5,3775
NNC(=O)C=C1CCN(c2ncc(C(F)(F)F)cc2Cl)CC1,15,16,2,3.9,7,10,20786*
